# GALR2 ag – GALR2 (human) receptor agonism. GALR2-expressing cells, agonist activation read-out. hit rate 0.48% among 140,000. activation, %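 (tested at 5 µM)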. AID 803;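 active means above mean plus 3 SD of all compounds, about 5% in these data, not always enough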;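 further: 0% = vehicle buffer wells and 100% = reference agonist at full effect; tested in CHO reporter cells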
# Target sequence (O43603 whole entry, looked up): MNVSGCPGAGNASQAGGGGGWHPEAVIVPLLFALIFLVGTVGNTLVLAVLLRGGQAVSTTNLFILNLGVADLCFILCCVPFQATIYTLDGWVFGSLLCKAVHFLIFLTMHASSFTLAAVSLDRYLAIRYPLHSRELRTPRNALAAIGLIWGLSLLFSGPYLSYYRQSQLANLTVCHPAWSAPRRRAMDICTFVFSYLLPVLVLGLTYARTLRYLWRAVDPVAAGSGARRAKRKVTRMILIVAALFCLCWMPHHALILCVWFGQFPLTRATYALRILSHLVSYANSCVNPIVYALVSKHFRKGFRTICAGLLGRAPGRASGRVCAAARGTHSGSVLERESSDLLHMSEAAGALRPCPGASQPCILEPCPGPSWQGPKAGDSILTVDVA
# HSV augment – HSV replication enhancement; HSV replication augmentation in cells, fold increase; maximum fold increase; hit rate 0.005% among 220,000; AID 1956;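 active means peak rise of 1.5-fold or more in the series; tested in PC3 cells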;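 further: first round at 10 µM; read as green reporter fluorescence; hits show the peak of a series up to 25 µM; 1 = signal of infected wells without compound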
# RGS16-Gao – regulators of human RGS16-Galphao interaction; bead-based flow cytometry RGS16-Galphao binding, fluorescence; actives lie on both sides; binding response (% of control), % at 10 µM; O15492+P09471; hit rate 0.38% among 220,000; AID 1441;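 active means below 25% or above 175%, edge rows of some plates excepted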;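 further: Galphao activated by GDP with aluminum fluoride before binding; 100% = wells without compound and 0% = beads without RGS; some results beyond the cut were filed as inactive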
# Target sequence (O15492 whole entry, looked up): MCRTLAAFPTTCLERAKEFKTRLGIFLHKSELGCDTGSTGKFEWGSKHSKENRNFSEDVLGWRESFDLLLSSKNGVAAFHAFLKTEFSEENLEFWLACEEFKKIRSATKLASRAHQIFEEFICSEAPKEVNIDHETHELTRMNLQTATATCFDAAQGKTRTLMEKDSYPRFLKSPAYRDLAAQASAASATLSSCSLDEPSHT
# Target sequence (P09471 whole entry, looked up): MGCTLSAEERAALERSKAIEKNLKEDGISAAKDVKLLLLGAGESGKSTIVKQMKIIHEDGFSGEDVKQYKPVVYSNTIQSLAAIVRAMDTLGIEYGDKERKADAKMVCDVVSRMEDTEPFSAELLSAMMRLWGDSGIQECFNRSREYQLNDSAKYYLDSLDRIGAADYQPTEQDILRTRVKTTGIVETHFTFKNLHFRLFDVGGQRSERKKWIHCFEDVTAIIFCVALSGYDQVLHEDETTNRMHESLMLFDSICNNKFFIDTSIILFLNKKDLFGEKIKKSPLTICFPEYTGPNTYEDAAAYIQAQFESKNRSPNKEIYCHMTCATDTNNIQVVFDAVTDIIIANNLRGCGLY
# INS promoter inh – TRM-6 insulin promoter activity inhibition. TRM-6 cells (human fetal islet line), insulin promoter-eGFP reporter, imaging; reporter expression induced with tamoxifen. inhibition, % at 2 µM. hit rate 0.9% among 130,000. AID 1273;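 active means inhibition above the mean plus 3 SD, with well images judged a real hit on visual review, cut at about 60% in these data, passing the limit was not always enough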
# PKD1 inh – inhibitors of human PKD1 kinase; AID 797; PKD1 kinase fluorescence polarization assay; Q15139; hit rate 0.056% among 200,000; inhibition, %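 (about 10 µM by stock and volumes)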;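 active means inhibition of 50% or more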;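 further: controls were vehicle for no effect and a reference inhibitor for full effect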
# INS promoter inh cell count – also measured in INS promoter inh; calls as there; normalized cell count, %; measured here: cell count, toxicity; reference of the scale not given here;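 cells exposed to compound for 48 h; stained nuclei by imaging scaled within each plate; lower means fewer cells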
# HSV augment primary fold – recorded beside HSV augment, whose call it bears; fold increase; compound at 10 µM; measured here: primary screen fold increase 10 uM; tested in PC3 cells;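 GFP signal in the first replicate; 1 = infected wells without compound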
# Numbers without * were called inactive; i = inactive; · = no result given.
# The opening four entries, ahead of the listing:
# The line under a structure holds: GALR2 ag | HSV augment | HSV augment primary fold | RGS16-Gao | INS promoter inh | INS promoter inh cell count | PKD1 inh
COc1ccccc1/C=C/C(=O)OCc1nc2ccccc2c(=O)[nH]1
 : · | i | 0.92 | 105 | · | · | -6
CC1(C)CC(=O)C2=C(C1)N(c1ccc(F)cc1)C(=O)CC2c1cccnc1 (configuration not stated)
 : -0.3 | i | 0.9 | 79 | · | · | -15
Cc1ccc2nc(NC(=O)CCn3c(=O)sc4ccccc43)sc2c1
 : -2.5 | i | 0.86 | 101 | · | · | -8
CC(=O)N/C(N)=N/c1nc2cc([N+](=O)[O-])ccc2o1
 : · | i | 1.3 | 98 | · | · | ·

# This part in full, from the first entry:
# The line under a structure holds: GALR2 ag | HSV augment | HSV augment primary fold | RGS16-Gao | INS promoter inh | INS promoter inh cell count | PKD1 inh
COc1ccccc1/C=C/C(=O)OCc1nc2ccccc2c(=O)[nH]1
 : · | i | 0.92 | 105 | · | · | -6
CC1(C)CC(=O)C2=C(C1)N(c1ccc(F)cc1)C(=O)CC2c1cccnc1 (configuration not stated)
 : -0.3 | i | 0.9 | 79 | · | · | -15
Cc1ccc2nc(NC(=O)CCn3c(=O)sc4ccccc43)sc2c1
 : -2.5 | i | 0.86 | 101 | · | · | -8
CC(=O)N/C(N)=N/c1nc2cc([N+](=O)[O-])ccc2o1
 : · | i | 1.3 | 98 | · | · | ·
COc1cc2c(cc1OC)C(C)N(C(=O)c1cc3ccccc3o1)CC2 (configuration not stated)
 : -0.3 | i | 0.82 | 104 | -36 | 141 | -8
CCOC(=O)NS(=O)(=O)c1ccc(CCNC(=O)c2cc(C)on2)cc1
 : -0.8 | i | 1 | 106 | 27 | 108 | -1
COc1ccc(/C=C/C(=O)NCC(=O)N2CCC(N(C)CCN3CCOCC3)CC2)cc1OC
 : · | i | 1.1 | 100 | -39 | 128 | -2
CCOC(=O)N1CCC(NC(=O)c2cc(S(=O)(=O)N3CCCCC3)ccc2F)CC1
 : · | i | 1 | 98 | 3 | 75 | 4
Cc1[nH]c2ccccc2c1SCc1nnc(SCc2ccc(Cl)cc2)n1C
 : · | i | 0.84 | 99 | · | · | ·
CN(C)/C=N/c1ncc(C(=O)c2ccccc2)s1
 : -3.6 | i | 0.76 | 115 | 39 | 130 | 5
Cc1ccccc1C(=O)NNC(=S)Nc1cccc(C(F)(F)F)c1
 : -1.0 | i | 0.84 | 112 | 11 | 105 | -4
Cc1sc2nc(CN(C(=O)c3cccs3)C3CCCC3)[nH]c(=O)c2c1C
 : 0.6 | i | 0.89 | 101 | · | · | 0
CCc1ccc(NCCC(=O)c2ccc(Br)cc2)cc1
 : -2.5 | i | 1.2 | 100 | 38 | 76 | -4
CSc1nc2cc(C)nn2c(-c2ccccc2Cl)c1C#N
 : · | i | 0.95 | 98 | · | · | ·
CN(C)c1cccc(C(=O)OCC(=O)Nc2ccccc2Cl)c1
 : · | i | 1 | 100 | 75* | 164* | -2
CCn1c(/C=C\c2ccccc2C)nc2ccccc2c1=O
 : · | i | 1 | 111 | -114 | 84 | 3
O=C(O)COc1ccccc1/C=N/NC(=O)CNC(=O)c1ccc(F)cc1
 : · | i | 1 | 108 | · | · | ·
Nc1ccc(C(=O)Oc2ccc([N+](=O)[O-])cc2)c(O)c1
 : · | i | 0.99 | 100 | · | · | ·
CCOC(=O)N1CCN(c2c(N3CCC(N4CCCCC4)CC3)c(=O)c2=O)CC1
 : -0.7 | i | 0.96 | 102 | · | · | -4
CCN(CC)CCNC(=O)Cn1cnc2sc(C)c(S(=O)(=O)N3CCOCC3)c2c1=O
 : -0.8 | i | 0.89 | 105 | -35 | 118 | 3
O=C(CSc1nnc(CSc2nc3ccccc3s2)o1)NC1CCCCC1
 : -1.0 | i | 0.95 | 101 | · | · | -4
Cc1cc(OCCCCCNCCO)ccc1Cl
 : 0.0 | i | 0.85 | 164 | 11 | 141 | -2
CCOC(=O)N1CCN(C(=O)CSCc2ccccc2C)CC1
 : -4.3 | i | 1.1 | 81 | 42 | 115 | -4
O=C(CCC1CCCC1)N1CCC(N2CCCCCC2)CC1
 : -0.6 | i | 1 | 84 | 21 | 99 | -10
Cc1ccccc1NC1=C/C(=N\S(=O)(=O)c2cccs2)c2ccccc2C1=O
 : 5.3 | i | 0.37 | 43 | -35 | 105 | -2
CCOc1ccccc1NC(=O)NC(C)c1ccncc1 (configuration not stated)
 : · | i | 1.1 | 104 | · | · | -2
CCN(CC)C(=S)SCC(=O)c1ccccc1
 : -2.3 | i | 0.87 | 107 | -58 | 115 | -5
CCCCC(=O)NC(=S)Nc1cccc(NC(=O)c2ccco2)c1
 : -1.1 | i | 1.1 | 68 | · | · | -13
O=C(NC(=S)NCC1CCCO1)c1ccc(Cl)cc1Cl (configuration not stated)
 : -1.0 | i | 0.94 | 100 | -77 | 105 | -7
CN1CCN(c2ccc(Cl)cc2NC(=O)CCN2C(=O)c3ccccc3C2=O)CC1
 : · | i | 0.93 | 94 | -31 | 116 | 2
CCCC(=O)Nc1c(C(=O)OCC)[nH]c2ccccc12
 : -2.0 | i | 0.82 | 100 | · | · | -6
COc1cccc(C2NC(=S)NC3=C2CCc2ccccc23)c1 (configuration not stated)
 : 0.6 | i | 1.2 | 95 | 3 | 122 | -7
CCOC(=O)C1(Cc2cccc(OC)c2)CCN(Cc2cccn2-c2nccs2)CC1
 : · | i | 1 | 108 | · | · | 1
CCOc1ccccc1N1CCN(C(=O)/C=C/c2cccc([N+](=O)[O-])c2)CC1
 : -0.9 | i | 0.94 | 112 | 14 | 72 | 3
Cc1ccc(N2C(=O)c3ccccc3NC2C(C)Cc2ccc3c(c2)OCO3)cc1 (configuration not stated)
 : -1.6 | i | 0.75 | 116 | 7 | 178 | -6
O=C(NC1CCN(Cc2ccccc2)CC1)C1CCCN(S(=O)(=O)c2cccc3nonc23)C1 (configuration not stated)
 : -0.5 | i | 1 | 101 | -3 | 117 | 7
CCOC(=O)c1cccc(NC(=O)CN(c2ccc(C)cc2)S(=O)(=O)c2c(C)n[nH]c2C)c1
 : -1.9 | i | 1 | 105 | · | · | -14
CC(=O)N1C(=O)N(C)C2C1N(C)C(=O)N2C(C)=O (configuration not stated)
 : -1.2 | i | 0.85 | 103 | -47 | 61 | -2
Cc1nn(CCC(=O)NNC(=S)Nc2ccc([N+](=O)[O-])cc2)c(C)c1[N+](=O)[O-]
 : · | i | 1 | 104 | · | · | 1
NC(=O)c1cc(S(=O)(=O)Nc2cccc(F)c2)co1
 : -1.5 | i | 1.2 | 108 | · | · | -12
O=C(Cc1ccc(Cl)cc1)NNC(=O)c1cnccn1
 : -0.5 | i | 0.99 | 101 | -100 | 120 | 2
O=C1OC(c2ccccc2)=NC12CC2c1ccc(Cl)cc1 (configuration not stated)
 : -1.5 | i | 0.83 | 106 | -19 | 100 | -2
CCOC(=O)C1(Cc2ccc(OC)cc2)CCN(C(=O)CCn2cccn2)CC1
 : · | i | 0.96 | 100 | · | · | ·
COc1ccc(OCC(=O)NC(=S)Nc2ccc(S(=O)(=O)Nc3cc(OC)nc(OC)n3)cc2)cc1
 : -0.5 | i | 1 | 105 | -63 | 98 | -5
COc1ccc(-n2c(Cc3cccn3C)nnc2SCC(=O)Nc2ccccc2F)cc1
 : -1.3 | i | 0.71 | 98 | · | · | -20
C#CCOCCOCCOCCNc1nc(N2CCOCC2)nc(N2CCN(C(=O)[C@H](Cc3cc4ccccc4[nH]3)n3cc([C@@H](N)Cc4ccc(O)cc4)nn3)CC2)n1
 : · | i | 0.92 | 98 | · | · | 4
Cc1ccc(C(=O)Nc2ccc(N3CCN(S(C)(=O)=O)CC3)cc2)cc1C
 : · | i | 0.99 | 101 | -50 | 110 | -2
COc1ccccc1S(=O)(=O)Nc1cc(S(=O)(=O)N2CCCCC2)ccc1N1CCOCC1
 : · | i | 0.99 | 100 | -94 | 75 | -1
Cc1cc(NC(=O)c2ccco2)ncc1NC(=O)CCc1ccccc1
 : -0.8 | · | · | 87 | · | · | 5
O=C(NCc1ccccc1Cl)c1ccccc1Oc1ccccc1
 : -1.4 | · | · | 106 | · | · | 5

# Later entries
Structure | GALR2 ag | HSV augment | HSV augment primary fold | RGS16-Gao | INS promoter inh | INS promoter inh cell count | PKD1 inh
O=C(COC(=O)C1CC(=O)N(c2ccc3c(c2)OCCO3)C1)NC1CCCc2ccccc21 (configuration not stated) | -1.0 | i | 1 | 100 | · | · | 2
CCc1cccc(CC)c1NC(=S)NCC(c1cccnc1)N1CCOCC1 (configuration not stated) | 1.0 | i | 1.1 | 100 | -6 | 148 | 4
O=C(CSc1cn(Cc2ccccc2)c2ccccc12)N1CCOCC1 | -1.5 | i | 0.88 | 108 | · | · | -18
COc1ccccc1-c1noc(CCC(=O)Nc2cccc(C)c2)n1 | -0.2 | i | 0.97 | 94 | 50 | 133 | -7
CC(=O)Nc1coc2ccc(Br)cc12 | -1.6 | i | 0.99 | 95 | -17 | 123 | 16
COC(=O)c1c(NC(NC(=O)c2ccccc2)(C(F)(F)F)C(F)(F)F)sc2c1CCN(C)C2 | -2.1 | i | 1.1 | 112 | 19 | 54 | 5
OC1CCCN(Cc2nc(Cc3ccccc3Cl)no2)C1 (configuration not stated) | · | i | 1 | 106 | 4 | 124 | -7
CN(C)c1nc(Nc2ccccc2)nc(N(C)C)n1 | -0.4 | i | 0.88 | 101 | · | · | -6
CC(=O)c1ccc(NC(=O)C(C)OC(=O)COc2ccc(C#N)cc2)cc1 (configuration not stated) | -0.4 | i | 1 | 100 | 24 | 134 | -1
CC(=O)C(Sc1nn(C)c(=S)s1)C(=O)Nc1ccccc1 (configuration not stated) | -2.1 | i | 0.73 | 310 | · | · | -3
CN1CCN(c2ccc(Cl)cc2NC(=O)/C=C/c2ccc(F)cc2)CC1 | · | i | 0.92 | 103 | · | · | 4
O=C(O)CN1CCN(Cc2ccc(F)cc2Cl)C1=O | -1.9 | i | 0.99 | 113 | · | · | 6
CC1(C)CC2CC(C)(CN2C(=O)C23CCC(C)(C(=O)O2)C3(C)C)C1 (configuration not stated) | -2.6 | i | 0.86 | 169 | · | · | -2
COc1ccc2c(Cl)c(C(=O)N/N=C/c3ccc4c(c3)OCO4)sc2c1 | -2.5 | i | 0.85 | 102 | · | · | 1
COCCN(Cc1cc2ccc(C)cc2n2nnnc12)Cc1nnnn1C(C)(C)C | -3.9 | i | 1 | 93 | 56 | 98 | -1
COc1ccc(NC(=O)CNC(=O)c2c(C)nn(C)c2Cl)cc1 | · | i | 0.97 | 103 | · | · | -8
Cc1ccccc1C(=O)Nc1cccc(-c2cn3ccccc3n2)c1 | · | i | 0.84 | 110 | · | · | 6
O=C1NN=C(c2ccc(Cl)cc2)CC1c1cccc(Br)c1 (configuration not stated) | · | i | 0.93 | 95 | · | · | -5
COC(=O)CSc1ncnc2c1sc1nc3c(cc12)COC(C)(C)C3 | · | i | 0.91 | 102 | · | · | 2
Cc1ccccc1OCCC(=O)OCC(=O)NC(C)c1ccccc1 (configuration not stated) | · | i | 0.95 | 98 | · | · | -3
CSc1cccc(NC(=O)COc2ccccc2)c1 | -2.6 | i | 0.81 | 100 | 0 | 99 | -3
Cc1cc(C)n2c(SCC(=O)NCc3ccc4c(c3)OCO4)nnc2n1 | · | i | 0.96 | 117 | · | · | ·
CCn1c(SCc2nc3scc(-c4ccccc4)c3c(=O)[nH]2)nnc1-c1ccc(Cl)cc1 | -0.9 | i | 0.93 | 91 | 30 | 108 | 4
COc1cccc(/C=N/NC(=O)c2c(C)nc3ccc(Br)cn23)c1O | · | i | 0.57 | 90 | 21 | 46 | 0
COc1ccccc1[C@@H]1C(c2cccc(Cl)c2)=NN(c2ccccc2)[C@H]1C(=O)N1CCOC1=O | 30* | i | 0.86 | 107 | 5 | 127 | -8
CCc1nc2ccccc2n1CC(=O)N(C(C)CC)C1CCS(=O)(=O)C1 (configuration not stated) | -0.8 | i | 1 | 98 | · | · | -10
O=C1CC(c2ccc(F)cc2)CC2=C1C=Nc1ccccc1N2 (configuration not stated) | · | i | 0.91 | 111 | -73 | 118 | -5
COc1ccc(C2C(C#N)=C(N)Oc3c2oc(CO)cc3=O)cc1 (configuration not stated) | · | i | 1.1 | 98 | · | · | -5
O=C(NCCO)c1cccc2c1-c1ccccc1C2=O | -0.3 | i | 0.91 | 94 | 42 | 43 | 13
COc1ccc(NCc2nnc(SCC(=O)Nc3ccc(OC)cc3OC)o2)cc1 | · | i | 0.91 | 136 | · | · | -3
CCCOc1ccc(N2C(=O)CC(N3CCCC(C(=O)N4CCCC4)C3)C2=O)cc1 (configuration not stated) | -0.8 | i | 1.1 | 104 | 42 | 86 | 4
